PINK1 expr mod: PINK1 expression modulation; Potency, µM (titrated, usually from 76.6 µM), for the others: at the top dose activation (PINK1 increase), actives largely listed as activators; PINK1 immunofluorescence, high-content cytometry, 24 h; AID 624263; 410,000 compounds, 0.2% hits; active = well fitted activation curve with a large enough effect; inconclusive = small, poorly fitted or top-dose-only effect; inactive = flat fitted curve, though single readings scatter; cell line not stated here;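 note: potency is the fitted concentration of half-maximal effect; % of control where 0% means no effect; nearly all actives have a fitted effect of over 65% in size; a mitochondrial uncoupler was the plate control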
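Cells are seeded, rested 12 hours, then given compound at five concentrations or DMSO for 24 hours. After fixation, blocking and antibody staining, PINK1 amount and mitochondrial localization are scored; CCCP serves as control.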
CtBP-E1A blk: blocks the CtBP interaction with E1A; AlphaScreen GST-E1A/His-CtBP binding, 1536-well; stronger effect = lower value; control for the full effect not named in the record; activity change, % (concentration not given with the values); 340,000 compounds, 0.49% hits; AID 651724; in the data active means activity change below about -65%; inconclusive means about -30% to -65%; inactive means above about -30%; note: % is set by controls: 0 for no effect and ±100 for the full control effect
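Homogeneous bead-based format: GST-tagged E1A captured on glutathione donor beads, His-tagged CtBP on nickel acceptor beads; compounds precede bead addition by 2 h at 37 °C.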
D2 potentiator: potentiates the human D2 dopamine receptor allosterically; P14416; DiscoveRx D2 beta-arrestin cells, luminescence, 90 min; 100% = 57 uM dopamine signal; potentiation, % (test concentration not listed); 360,000 compounds, 0.23% hits; AID 624464; active = potentiation of 50% or more; inconclusive = 30% to 50%; inactive = 30% or less;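 note: compound concentration not given in the record; tested on top of an EC20 dose of dopamine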
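PathHunter beta-arrestin assay in DiscoveRx D2 cells. Compounds were added with an EC20 of dopamine (50 nM final) for 90 min at 37 deg C. Luminescence was read 1 h after detection reagent, with 57 uM dopamine as the EC100 control.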
Six1-Eya2 inh: inhibitors of human Six1/Eya2 interaction. Q15475+O00167. AlphaScreen GST-Six1/His-Eya2 binding, biochemical; stronger effect = lower value; control for the full effect not named in the record. activity change, % (concentration not given with the values). 360,000 compounds, 0.56% hits; in the data active = activity change below about -65%; inconclusive = about -30% to -65%; inactive = above about -30%; note: % is set by controls: 0 for no effect and ±100 for the full control effect
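AlphaScreen luminescence read after one hour at 37 °C in darkness. Pin-transferred compounds met GST-Six1 and His-Eya2 protein (5X stock 250 nM/500 nM) plus glutathione donor and Ni-chelate acceptor beads (5X, 50 ug/mL).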
Sfp inh: blocks B. subtilis Sfp PPTase activity; Q9F4F7; Biochemical Sfp PPTase activity, qHTS; Potency, µM, for the others: max response, negative = inhibition, actives largely listed as inhibitors; 310,000 compounds, 3.5% hits; AID 1490; active = well fitted inhibition curve with a large enough effect; inconclusive = small, poorly fitted or top-dose-only effect, or another doubt; inactive = no such curve, though single readings can be large or run the other way;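 note: the enzyme is Sfp with the accession as filed and its product quenches rhodamine fluorescence; potency is the fitted concentration of half-maximal effect; 0% = enzyme reaction without inhibitor and -100% = no enzyme wells; top concentration of the series not given in the record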
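Fluorescence-quenching assay with 15 nM Sfp, 5 uM rhodamine-CoA and 12.5 uM BHQ-2-labelled ybbR peptide in pH 7.6 Hepes/MgCl2 buffer. Enzyme was pre-incubated with compound for 15 min at room temperature. Rate was taken from the 30-min fluorescence change (525/598 nm).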
D2 agonist: agonists of human D2 dopamine receptor (beta-arrestin) | P14416 | activation, % (no concentration beside the values) | 360,000 compounds, 0.084% hits | DiscoveRx PathHunter D2 beta-arrestin, luminescence, 90 min; 100% = 57 uM dopamine signal; in the data active = activation above about 40%; inconclusive = about 15% to 40%; inactive = below about 15%; note: compound concentration not given in the record; the text of the record calls up to 30% inactive
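DiscoveRx PathHunter D2 beta-arrestin cells (2,100/well) attached overnight, then compound-stimulated 90 min at 37 C in HBSS/10 mM HEPES/0.1% Tween-20 buffer; beta-galactosidase complementation read by luminescence after 1 h at ambient temperature. Dopamine 57 uM final (EC100) as control.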
TRPV1 PAM: potentiators of human vanilloid receptor 1 (TRPV1). Q8NER1. TRPV1-expressing cells, Fluo-8 calcium influx, capsaicin EC20 potentiation; host cell line not named in the record; control for the full effect not named in the record. potentiation, % at 8.33 µM. 320,000 compounds, 0.02% hits. AID 540277; active means potentiation above 80%; inconclusive means 30% to 80%; inactive means below 30%; note: 0% is about no effect
Target sequence (Q8NER1 whole entry, looked up): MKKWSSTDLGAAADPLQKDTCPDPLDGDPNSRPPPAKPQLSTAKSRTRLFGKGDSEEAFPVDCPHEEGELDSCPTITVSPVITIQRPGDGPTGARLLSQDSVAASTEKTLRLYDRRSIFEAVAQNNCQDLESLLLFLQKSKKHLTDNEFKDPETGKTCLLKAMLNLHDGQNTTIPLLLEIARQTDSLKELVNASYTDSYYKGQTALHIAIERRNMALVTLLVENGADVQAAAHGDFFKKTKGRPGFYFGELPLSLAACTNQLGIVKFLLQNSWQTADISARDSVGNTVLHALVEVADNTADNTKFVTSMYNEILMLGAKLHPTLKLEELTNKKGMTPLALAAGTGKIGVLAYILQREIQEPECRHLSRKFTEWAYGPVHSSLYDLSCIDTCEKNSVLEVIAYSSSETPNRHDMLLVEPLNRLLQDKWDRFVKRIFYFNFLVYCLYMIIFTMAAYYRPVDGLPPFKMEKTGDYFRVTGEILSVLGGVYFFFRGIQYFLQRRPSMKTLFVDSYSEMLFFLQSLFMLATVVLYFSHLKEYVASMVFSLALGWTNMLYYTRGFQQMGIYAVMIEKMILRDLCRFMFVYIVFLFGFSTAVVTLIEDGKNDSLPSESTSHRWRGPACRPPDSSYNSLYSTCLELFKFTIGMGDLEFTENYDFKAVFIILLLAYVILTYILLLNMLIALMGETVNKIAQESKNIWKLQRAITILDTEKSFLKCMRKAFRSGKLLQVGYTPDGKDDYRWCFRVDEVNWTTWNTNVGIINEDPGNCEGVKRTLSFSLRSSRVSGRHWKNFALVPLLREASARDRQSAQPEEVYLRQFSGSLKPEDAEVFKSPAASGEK
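Fluo-8 calcium influx in TRPV1-expressing cells, kinetic read (ex 480/em 520 nm). Compound added and read 3 min for agonist activity, followed by capsaicin at EC20 final and 2 min further read for enhancement.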
* hit, by the source's call; ? = inconclusive; . = not tested or not shown; & = joins results of further samples; [ ] = dose if it differs, or a comment.

SMILES	PINK1 expr mod	CtBP-E1A blk	D2 potentiator	Six1-Eya2 inh	Sfp inh	D2 agonist	TRPV1 PAM
CCN(CC)CCCNC(=S)N(CCO)Cc1cc2cc3c(cc2[nH]c1=O)OCCO3	-0.2%	-2	-5	0	-4%	-1.4	0
O=C1c2ccsc2SCCN1Cc1cccc(Cl)c1	0.4%	1	-8	-2	-11%	-1.9	-5
Cc1cccc(C(=O)Nc2ccn(C)n2)c1	1.2%	11	-3	-4	.	5.1	10
COc1ccc(Cl)cc1NC(=O)CN1CCN(S(=O)(=O)c2ccc(F)cc2)CC1	3.5%	8	-5	-4	5%	-0.8	4
Cc1nc(SC(C)C(=O)NC2CCCCC2C)c2c(C)c(C)sc2n1 (stereo unspecified)	4.3%	2	-8	2	-4%	-1.4	16
CNC(=S)N1CCn2cccc2C1c1ccc(F)cc1 (stereo unspecified)	1.1%	-3	-5	-10	56µM*	-4.5	16
Cc1ccc(-n2nc3c(=S)[nH]nc(C)c3c2C)cc1	?	9	-1	0	1%	-2.2	25
CCOc1ccc(CNC(=O)CCS(=O)(=O)Cc2cccc(Cl)c2)cc1OC	1.4%	-2	-1	0	-1%	-5.7	-13
Cc1cccc(CCNC(=O)CC2C(=O)NCCN2Cc2ccc(F)c(F)c2)n1 (stereo unspecified)	1.4%	7	0	3	-3%	3.3	-10
COc1cc(OC)c2c(-c3ccccc3)cc(=O)oc2c1C(CC(=O)N1CCOCC1)c1ccc(N(C)C)cc1 (stereo unspecified)	0.1%	?	-15	?	-1%&-13%	1.4	-22
COc1cccc(CSc2nnc(-c3ccc(F)cc3)o2)c1	1.4%[38.3 µM]	33	-2	37	-6%	-2.7	-8
Cc1ccc(-n2ncc3c(=O)n(CC(=O)Nc4cccc(Cl)c4)cnc32)cc1C	1.2%	3	-4	5	2%	1.5	?
CCOc1ccccc1/C=N/NC(=O)c1nnn(-c2nonc2N)c1CN1CCCCCC1	3.4%	5	-5	2	.	-3.5	.
CC[C@]12c3[nH]c4cc(-c5ccco5)ccc4c3CCN1C(=O)[C@@H](CC(=O)NC(C)(C)C)C[C@@H]2C(=O)N1CCN(C(=O)C2CC2)CC1	0.4%	-4	-5	0	.	-1.5	.
O=C(NCCCc1ccccc1)c1ccc(F)cc1	0.3%	-1	-7	1	2%	0.2	-28
Cc1nn(-c2ccccc2)c(C)c1C(=O)OCC(=O)c1c(N)n(CC(C)C)c(=O)n(C)c1=O	5.1%	3	-1	-11	-4%	-1.8	13
CCN1C(=O)[C@H]2[C@@H](c3ccc(C)cc3)N3C(=O)N(c4ccccc4)C(=O)[C@@]3(Cc3ccccc3)[C@H]2C1=O	2.2%	4	-24	0	27%	1.6	-11
COc1ccc(CCNC(=O)c2cc(-c3ccccn3)nc3c(Cl)cccc23)cc1OC	6.9%	3	-3	-8	-17%	-5.0	0
CCCC(C)C(=O)Nc1nnc(CCc2ccccc2)s1 (stereo unspecified)	6.8%	-2	-9	3	10%	-1.4	-16
CN1CCN(S(=O)(=O)c2ccc3c(c2)NC(=O)CS3)CC1	2.9%	.	-10	6	8%	-1.7	26

Next section; the last 2 above are carried over.
SMILES	PINK1 expr mod	CtBP-E1A blk	D2 potentiator	Six1-Eya2 inh	Sfp inh	D2 agonist	TRPV1 PAM
CCCC(C)C(=O)Nc1nnc(CCc2ccccc2)s1 (stereo unspecified)	6.8%	-2	-9	3	10%	-1.4	-16
CN1CCN(S(=O)(=O)c2ccc3c(c2)NC(=O)CS3)CC1	2.9%	.	-10	6	8%	-1.7	26
Cc1ccc(C(=O)c2cc3c(cc2N)OCCO3)cc1	1.6%	-20	-3	?	-5%	-0.9	-4
COc1cc(/C=N/NC(=O)CNC(=O)c2ccccc2)ccc1OC(=O)c1cccs1	-1.4%	-6	6	-13	-1%	-1.9	7
Cc1ccc(Cc2c(-c3cccc(Cl)c3)nc3c(C)cc(Br)cn23)cc1	6.1%	3	-7	-8	.	-6.6	.
O=C(Nc1cc(Cl)ccc1O)c1cc2n(n1)C(C(F)(F)F)CC(c1ccc3c(c1)OCO3)N2 (stereo unspecified)	?	-14	0	-20	32%[activator]	5.8	7
Cc1ccccc1Cn1cc(C)c(=O)[nH]c1=O	1.0%	-9	-2	7	10%	-7.0	3
Cc1cccc(N2CCN(C(=O)Cn3cnc4c3c(=O)n(C)c(=O)n4C)CC2)c1C	1.5%	-7	-12	2	12%	-3.1	1
O=C1[C@@H]2C(Cc3ccc(O)cc3)NC3(C(=O)Nc4ccc(F)cc43)[C@@H]2C(=O)N1c1ccc(F)cc1 (stereo partly specified)	6.0%	-16	-5	-13	-4%	-2.8	0
O=C1C(=O)N(Cc2cccnc2)C(c2cccc([N+](=O)[O-])c2)/C1=C(\O)c1ccc2c(c1)OCCO2 (stereo unspecified)	-0.3%	1	-6	0	18%	2.1	13
O=C(Cc1ccccc1)c1nnc(-c2ccccc2)o1	-0.6%	0	-13	6	12%	-4.8	15
O=c1nc2ccccc2c(NS(=O)(=O)c2ccccc2)n1-c1ccccc1	-2.3%	-14	23	-14	4%	-2.2	7
CS(=O)(=O)N1CCN(c2ccc([N+](=O)[O-])cc2C(F)(F)F)CC1	-2.4%	9	-3	1	-2%	-3.7	-13
Cc1c(OCC(=O)NCC(O)c2ccccc2)ccc2c3c(c(=O)oc12)CCC3 (stereo unspecified)	1.3%	-6	-7	-3	-1%	0.4	-2
CC1(C)Cc2cccc(OCC(=O)N3CCN(c4ccccc4Cl)CC3)c2O1	0.0%	-12	-7	-2	.	-7.7	-15
N=c1ccn2c(n1)O[C@H]1[C@@H](CO)[C@H](O)O[C@H]12	4.4%	2	1	0	.	-4.9	0
Cc1ccc(NC(=O)c2cc(NC(=O)CCC(=O)O)ccc2N2CCCCC2)cc1	-3.3%[38.3 µM]	8	-4	-1	-4%	-2.0	24
O=C(NCc1ccco1)C1CCN(C(=O)c2ccc(Cl)cc2Cl)CC1	5.1%	5	2	2	?	7.1	30
CCc1ccc(-c2cc(C)no2)cc1S(=O)(=O)N1CCN(c2ccccn2)CC1	1.8%	-9	2	-6	-3%	-3.3	-23
OC(CCc1ccncc1)COc1ccccc1 (stereo unspecified)	0.6%	2	-7	2	.	-2.4	16
CCOC(=O)c1cc(C#N)c(SCc2cccc3ccccc23)nc1C	-0.5%	5	-5	0	19%	0.6	7
CC(C)(C)c1ccc(OCC(=O)N/N=C/C2CC=CCC2)cc1 (stereo unspecified)	6.7%	5	-11	0	?	1.3	-8
CCCc1noc2c1C(c1cc(Br)ccc1F)C(C#N)=C(N)N2 (stereo unspecified)	3.5%	.	-33	0	10%	3.2	-3
O=C(c1cccc(F)c1)N1CCN(c2cccc(C(F)(F)F)c2)CC1	1.2%	-3	7	2	9%	-1.5	-15
CCOC(=O)c1cc(-c2csc(N/N=C/c3ccccc3Cl)n2)on1	-0.7%	2	-5	-4	1%	-4.8	.
COCCN1CN=C(NS(=O)(=O)c2ccc(C)cc2)NC1	0.5%&1.0%	.	1	-1	20%	-2.6	-38
CCN(C(=O)CSc1nncn1-c1ccccc1)c1c(N)n(Cc2ccccc2)c(=O)[nH]c1=O	1.6%	2	-12	6	9%	0.2	0
COC(=O)[C@H](CCSC)NC(=O)Nc1cc(C)ccc1C	-0.1%	3	-1	0	10%	-1.4	-6
Nc1cc(Cl)ccc1C(=O)OCC(=O)N1CCCC1	-0.5%	4	-3	-6	18%	-4.6	-5
CCOc1ccc(CNC(=O)CCS(=O)(=O)c2ccc3c(c2)oc(=O)n3C)cc1	2.4%&0.1%	.	6	5	14%	0.8	-12
COc1ccc(NC(=O)C2CCN(S(=O)(=O)c3cccc4cccnc34)CC2)cc1	1.0%	-1	-7	-2	19%	-3.3	-9
C=CCn1c(SCC(=O)NCc2ccco2)nnc1-c1ccc2ccccc2n1	-0.5%	-11	-6	-8	?	-6.3	-3
O=[N+]([O-])c1ccc2cn(-c3ccccc3)nc2c1	-0.6%	-13	-7	-2	14%	3.2	-5
COc1ccc(Cn2nnnc2C(c2ccncc2)N2CCOCC2)cc1 (stereo unspecified)	-0.1%[38.3 µM]	5	2	3	?	3.7	-10
Cc1ccccc1Nc1nc(N)nc(CN2C(=O)NC3(CCCCC3C)C2=O)n1 (stereo unspecified)	-4.0%	9	13	-1	22%	-1.4	25
COc1ccc(Cl)cc1CNCCCSc1ncccn1	-0.3%	-2	-12	-11	13%	2.6	-6
Nc1ccc(S(=O)(=O)NC(=O)c2ccccc2)cc1	0.4%	-4	-5	-1	22%&12%&-7%	-5.2	-3
COc1ccc(-c2cc(C(F)(F)F)n3nc(C(=O)NCc4ccco4)c(Cl)c3n2)cc1	11%	-18	-2	-18	8%	-5.2	-15
COc1ccc(-c2noc(CSc3nnc(Cc4ccccc4)n3-c3cccc(C)c3)n2)cc1OC	-5.4%[38.3 µM]	10	-4	-15	-4%	-1.4	-1
CCN(CC)c1ccc(NC(=O)c2ccc(Br)o2)c(C)c1	-0.4%[38.3 µM]	-24	-9	-18	-6%	-6.6	-7
CC(=O)Nc1cccc(OCCCNC(=O)c2cccc3ccccc23)c1	-0.5%	10	-1	-3	2%	-2.3	-20
COc1ccc(C2CC(=O)C(C=NCCN3CCN(C(C)=O)CC3)=C(O)C2)cc1 (stereo unspecified)	-3.1%[38.3 µM]	-8	-2	-3	20%	1.0	11
CCOc1ccccc1N(CC(=O)NCC1CCCO1)C(=O)CCC(=O)Nc1ccccn1 (stereo unspecified)	-1.4%	10	-14	10	11%	-5.5	-15
C/C(=N\NC(=O)c1nnn(-c2nonc2N)c1CN1CCOCC1)c1ccc(CC(C)C)cc1	0.3%	6	1	2	-1%	0.4	6

A different layout for some results above.
| SMILES | PINK1 expr mod | CtBP-E1A blk | D2 potentiator | Six1-Eya2 inh | Sfp inh | D2 agonist | TRPV1 PAM |
| --- | --- | --- | --- | --- | --- | --- | --- |
| COc1ccc(NC(=O)C2CCN(S(=O)(=O)c3cccc4cccnc34)CC2)cc1 | 1.0% | -1 | -7 | -2 | 19% | -3.3 | -9 |
| C=CCn1c(SCC(=O)NCc2ccco2)nnc1-c1ccc2ccccc2n1 | -0.5% | -11 | -6 | -8 | ? | -6.3 | -3 |
| O=[N+]([O-])c1ccc2cn(-c3ccccc3)nc2c1 | -0.6% | -13 | -7 | -2 | 14% | 3.2 | -5 |
| COc1ccc(Cn2nnnc2C(c2ccncc2)N2CCOCC2)cc1 (stereo unspecified) | -0.1%[38.3 µM] | 5 | 2 | 3 | ? | 3.7 | -10 |

Screens (PubChem BioAssay)
